PABP polyA inh = blocks human PABP binding to poly(A) RNA. inhibition, % at 35 µM. fluorescence polarization. 290,000 compounds, 1% hits. AID 2014;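 active = 50% or more with normal probe brightness, or confirmed in later tests; inconclusive = above 50% with abnormal brightness, or retests that disagree; inactive = below 50% or failed in later tests; about a fifth of its hits are not listed in these tables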;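 also: calls also rest on retests at 20 µM and on dose response follow-up; controls were probe without protein and protein plus probe with vehicle; some compounds called inactive have numbers as strong as hits; many hits fall short of the cut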
CSC inhib = blocks cancer stem cells | 300,000 compounds, 1.1% hits | inhibition, % at 7.5 µM | cancer stem cell-like cells viability, luminescence;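 active = mean at 75% or more and at least half the replicates too; inconclusive = mean and replicates disagree; tested in HMLE shEcad cells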;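 also: 0% = median of negative and 100% = median of positive control wells; the first replicate is given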
Yeast UUG start = yeast start codon fidelity modulation. S. cerevisiae UUG-firefly luciferase reporter, luminescence/redox ratio. activity score, % at 18.7 µM. 350,000 compounds, 0.13% hits. AID 602363;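 active = replicate mean at a twofold rise or more, about +100% in these data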;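 also: firefly luciferase made from a UUG start codon reports start codon fidelity; reporter light over untreated wells divided by growth signal over untreated wells; some hits fall short of that in this replicate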
HIV Env fusion = inhibitors of HIV Env-mediated cell fusion; HeLa-JRFL Env/CEM21 cell fusion, luciferase; inhibition, % at 12.3 µM; 360,000 compounds, 1.1% hits;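 active = mean replicate inhibition score of at least 50 and every replicate individually at or above 50; inconclusive = only one of the two criteria met; inactive = mean below 50 and not all replicates reaching 50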;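 also: 0% = plate neutral controls and 100% = maraviroc near 300 nM; one replicate is shown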
Rce1 inh = inhibitors of yeast Ras-converting enzyme | Q03530 | yeast membranes, quenched prenylated peptide cleavage fluorescence | calls only | 290,000 compounds, 0.27% hits | AID 2563;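 active = fall in fluorescence gain of 50% or more versus controls, with final raw signal at or below 3038400; inconclusive = same 50% fall but final raw signal above 3038400; inactive = fall in fluorescence gain under 50%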;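 also: plate controls were neutral control wells for no effect and wells lacking membranes for full effect; tested at 10 µM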
Target sequence (Q03530 whole entry, looked up): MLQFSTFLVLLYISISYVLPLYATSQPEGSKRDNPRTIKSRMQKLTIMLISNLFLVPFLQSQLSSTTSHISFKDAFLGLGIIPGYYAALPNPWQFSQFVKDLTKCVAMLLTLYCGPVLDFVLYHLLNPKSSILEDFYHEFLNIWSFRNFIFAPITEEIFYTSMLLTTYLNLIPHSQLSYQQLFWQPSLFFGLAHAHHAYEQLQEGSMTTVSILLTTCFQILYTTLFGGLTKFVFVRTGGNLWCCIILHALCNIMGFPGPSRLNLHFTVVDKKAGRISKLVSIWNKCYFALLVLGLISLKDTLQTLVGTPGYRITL
MT1-MMP act inh = MT1-MMP (human) activation inhibition. HT1080 RFP-PRO-GFP cells, GFP/RFP ratio fluorescence, overnight; percent of plate control window, DMSO zero. GFP/RFP ratio change, % at 20 µM. 360,000 compounds, 0.061% hits. AID 651647;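 active = GFP/RFP ratio change of at least 30% with cell ATP level not reduced by more than half and red fluorescence within 50% of control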; also: strong numbers were not always called active
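system = RFP-PRO-GFP reporter HT1080 cells | dosing = 20 µM single dose, 1% DMSO | timing = overnight cell settling, then overnight compound exposure, 37 °C, 5% CO2 | read-out basis = GFP/RFP fluorescence ratio | controls = DMSO and RFP-L50D-GFP cell wells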
eIF4H inh = inhibitors of RNA binding by human eIF4H. Q15056. eIF4H fluorescence polarization binding assay. inhibition, % at 35 µM. 290,000 compounds, 0.94% hits;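 active = 50% or more with normal probe brightness, or confirmed in later tests; inconclusive = above 50% with abnormal brightness, or retests that disagree; inactive = below 50% or failed in later tests; about a fifth of its hits are not listed in these tables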;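 also: calls also rest on retests at 20 µM and on dose response follow-up; 0% = protein and probe with vehicle and 100% = probe without protein; strong numbers were not always called active; many hits fall short of the cut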
eIF4H inh retest = further read-out of eIF4H inh, marked with its call; inhibition, %; compound at 20 µM; confirmation average;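 mean of two retest wells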
PABP polyA inh retest = also measured in PABP polyA inh; calls as there; inhibition, %; compound at 20 µM; confirmation repeats;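 mean of two retest wells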
MT1-MMP act inh RFP = further read-out of MT1-MMP act inh, marked with its call; RFP signal change, %; measured here: RFP expression control read;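 0 = vehicle wells; hits needed this value within 50% of zero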
Active calls of the source: *; i = inactive; u = inconclusive; x = not tested or not shown; & = joins results of further samples.

Sample of the layout:
SMILES	PABP polyA inh	CSC inhib	Yeast UUG start	HIV Env fusion	Rce1 inh	MT1-MMP act inh	MT1-MMP act inh RFP	eIF4H inh	others
Cc1cc(O)c2c(c1)C(=O)C13C(=C2O)C(=O)[C@H]2[C@@H](O)[C@@H]1[C@H]1[C@H](O)[C@@H]3C(=O)C3=C(O)c4c(O)cc(C)cc4C(=O)C312 (stereo not given in full)	x	73.0	-22.5	x	x	-36.0	-34.9	x
CCn1ccnc1CN1CCCC(C(=O)c2cc(C)c(OC)c(C)c2)C1 (stereo not given)	18.6	44.4	-25.2	9.0	i	2.0	-1.4	-9.7
CC(=O)Nc1ccccc1C(=O)OCc1ccc(C(=O)c2ccccc2)cc1	2.4	1.1	-9.0	28.6	i	5.5	-15.8	-8.9

The list itself, repeating the preview:
SMILES	PABP polyA inh	CSC inhib	Yeast UUG start	HIV Env fusion	Rce1 inh	MT1-MMP act inh	MT1-MMP act inh RFP	eIF4H inh	others
Cc1cc(O)c2c(c1)C(=O)C13C(=C2O)C(=O)[C@H]2[C@@H](O)[C@@H]1[C@H]1[C@H](O)[C@@H]3C(=O)C3=C(O)c4c(O)cc(C)cc4C(=O)C312 (stereo not given in full)	x	73.0	-22.5	x	x	-36.0	-34.9	x
CCn1ccnc1CN1CCCC(C(=O)c2cc(C)c(OC)c(C)c2)C1 (stereo not given)	18.6	44.4	-25.2	9.0	i	2.0	-1.4	-9.7
CC(=O)Nc1ccccc1C(=O)OCc1ccc(C(=O)c2ccccc2)cc1	2.4	1.1	-9.0	28.6	i	5.5	-15.8	-8.9
O=C(O)c1ccc(N=Cc2c(O)n(Cc3ccc(F)cc3)c(=O)[nH]c2=O)cc1	u	-10.7	-7.2	13.5	i	-9.5	-2.4	u
CCN(CC)S(=O)(=O)N1CCC(C(=O)N2CCC3(CC2)OCCO3)CC1	3.5	-12.4	-12.6	1.9	x	-1.5	2.7	-8.8
O=c1[nH]c(=O)n(Cc2ccccc2)c(O)c1/C=C1\C=Nc2ccccc21	1.0	x	x	-1.8	i	-7.0	5.1	u
N#Cc1c(/N=C/C2C(=O)NC(=S)NC2=O)sc2c1CCCC2	-5.0	-1.1	-13.7	-6.4	i	-10.2	5.6	94.8	eIF4H inh retest=-3.0;PABP polyA inh retest=-2.0
O=c1[nH]c(O)c(/C=C2\C=NN=C2c2ccccc2)c(=O)[nH]1	8.9	-17.7	x	x	i	-3.3	-0.2	-4.4
CCOC(=O)C1(c2ccccc2)CCN(CCC(=O)Nc2cccc(Br)c2)CC1	x	x	-5.7	2.0	x	2.5	-7.0	x
COc1cc(CN2CCCC(C(=O)c3sccc3C)C2)cc(Cl)c1O (stereo not given)	-2.9	-14.7	x	-14.4	i	3.1	4.4	4.6
COc1ccc(-c2cc(=NCCCCCC(=O)O)c3cc(C)ccc3o2)cc1	2.6	x	x	-3.7	u	4.9&5.9	2.5&1.5	2.5
COc1ccc(-c2n(-c3ccccn3)c3ccccc3[n+]2-c2ccccn2)cc1	9.0	x	-6.0	22.6	i	-2.9	-3.5	4.8
Cc1cc(Br)ccc1N1C(=O)CC(=O)NC1=O	u	-15.7	-10.5	-31.3	i	-28.5	5.2	u
Nc1ccc2c(c1)oc1ccccc12	-14.5	x	-12.2	-59.7	i	5.7	-1.1	-7.5
O=C(NCc1ccc(C(=O)N2CCC3(CC2)OCCO3)cc1)c1ccc2c(c1)OCO2	-6.7	1.7	-12.8	-18.1	i	-1.2	1.7	7.5
CCN1CCN(CC(c2ccccc2)c2ccccc2)CC1	-6.7	4.4	-2.0	-9.7	i	3.1	-1.1	6.5
Cc1cccc(C)c1OC(=O)Cc1ccccc1	-16.3	-9.1	x	-7.3	i	0.9	0.7	-6.7
COc1ccc(C2CN(C)CC2C(=O)c2ccc(F)cc2)cc1Cl (stereo not given)	43.9	-5.8	x	-14.7	i	-8.0	-4.3	-6.7
O=C(CN1CC(c2ccccc2)CC1=O)Nc1cccc(F)c1 (stereo not given)	2.1	-20.3	-0.4	4.7	i	-0.9	7.6	11.4
CCCNC(=O)N1C2CCC1CC(O)(c1cccnc1)C2 (stereo not given)	-6.6	5.6	-11.2	-23.1	i	4.5	2.5	0.5
CCCC(=O)N(C)C1=Nc2ccc(Cl)cc2C(c2ccccc2)=[N+]([O-])C1	3.2	-4.6	x	17.5	i	-0.5	0.1	4.4
Cc1ccc2c(CN3CC=C(c4ccccc4)CC3)cc(=O)oc2c1C	-0.3	-11.3	-5.7	3.7	i	-0.9	4.9	-0.4
Cc1cccc(-n2c(C)nc3ccc(Cl)cc3c2=O)c1	4.9	-12.6	-18.0	28.6	i	-2.1	-2.0	4.4
Cc1ccc2c(c1)C1CN(C)CCC1N2C(=O)/C(C#N)=C/c1ccc2c(c1)OCO2 (stereo not given)	6.0	7.4	x	4.1	i	-5.6	-1.5	8.0
CC(=O)NC1=C(N2CC2C)C(=O)C(NC(C)=O)=C(N2CC2C)C1=O (stereo not given)	x	x	11.7	u	x	0.1	0.5	x
N#CC(C#N)=Cc1ccc(O)c(O)c1	x	8.8	-4.6	27.7	x	-0.4	-4.5	x
O=c1[nH]c(=O)n(-c2ccc(Cl)cc2)c(O)c1C=NCCN1CCCCC1	13.7	x	x	12.5	i	0.2	2.6	-6.5
CC(C(=O)Nc1ccc(Cl)cc1Cl)N1CC=C(c2ccccc2)CC1 (stereo not given)	4.2	-15.0	x	-11.3	i	-2.6	-3.7	-9.6
CCOP(=O)(OCC)C(O)c1ccc(N(C)C)cc1 (stereo not given)	6.3	x	x	-22.5	i	0.4	-0.9	4.4
O=S(=O)(c1ccc(Cl)cc1)N1Cc2cc(Br)ccc2-n2nncc2C1	x	x	-6.0	-2.8	x	1.2	-5.9	x
CCOc1ccccc1OCC(=O)Nc1ccc(Cl)cc1C(=O)c1ccccc1	0.9	25.1	-22.4	-31.9	i	-13.4	-6.1	0.6
Cc1ccc(-n2c(O)c(C=NC3CCCCC3N)c(=O)[nH]c2=O)cc1C (stereo not given)	-0.2	-13.2	-7.7	x	i	-1.7	0.0	-0.7
COC(=O)C1=C(c2ccc(Cl)c(C(F)(F)F)c2)C[C@@H]2CC[C@H]1N2C(=O)NCc1cc(C)oc1C(F)(F)F	x	40.9	-25.9	41.4	x	-14.7	-12.3	x
Cn1cc(C(=O)OCC(=O)Nc2ccccc2)c2ccccc21	x	-4.9	-12.0	x	x	5.9	-4.2	x
O=C(Cc1ccccc1)OC(COCc1ccccc1)CN1CCOCC1 (stereo not given)	14.3	-10.4	6.0	x	i	1.0	1.6	0.7
COC(=O)C1=C(c2cccc(Cl)c2)C[C@@H]2CC[C@H]1N2C(=O)NCC1CC1	x	-4.6	-8.4	1.4	x	3.7	-1.4	x
N#CC1(c2ccccc2)CCN(C2CC(=O)N(c3cccc(F)c3)C2=O)CC1 (stereo not given)	3.9	x	-13.1	5.1	i	0.1	1.9	0.9
C=CCN1C[C@@H](C)N(C(c2ccc(C(=O)N(CC)CC)cc2)c2cccc(OC)c2)C[C@@H]1C (stereo not given in full)	x	-12.7	-4.9	12.4	x	5.6	0.5	x
S=C1NC2(CCCCC2)NC12CCCCC2	8.6	-4.1	-12.1	2.0	i	0.5	0.3	8.6
COc1ccc(OC)c(CN2CCN(C(=O)Cc3ccccc3)CC2)c1	13.3	x	-2.4	-71.3	i	0.7	2.9	8.0
O=c1c2ccccc2nc(-c2ccccc2)n1-c1ccccc1	-6.6	63.3	-9.3	-7.6	i	0.1	-1.4	-1.9
ClCCN(CCCl)c1ccc(C=NNc2ncccn2)cc1	x	x	-38.4	-23.3	x	4.5	4.4	x
CCN1CCN(c2ccc(NC(C)=O)cc2Cl)CC1	0.8	-16.5	x	3.4	i	-3.9	-1.1	16.2
O=c1[nH]c(=S)n(-c2ccccc2Cl)c(O)c1C=NCCN1CCNCC1	0.6	3.4	-10.7	-2.7	i	3.6	1.6	1.8
CCSc1nnc([C@@H](N)Cc2c[nH]c3ccccc23)o1	-0.3	-11.2	-3.1	-28.4	i	7.5	5.1	0.7

Four structures from above, arranged by number of heavy atoms, largest number first.
SMILES	PABP polyA inh	CSC inhib	Yeast UUG start	HIV Env fusion	Rce1 inh	MT1-MMP act inh	MT1-MMP act inh RFP	eIF4H inh	others
COC(=O)C1=C(c2ccc(Cl)c(C(F)(F)F)c2)C[C@@H]2CC[C@H]1N2C(=O)NCc1cc(C)oc1C(F)(F)F	x	40.9	-25.9	41.4	x	-14.7	-12.3	x
COc1ccc(OC)c(CN2CCN(C(=O)Cc3ccccc3)CC2)c1	13.3	x	-2.4	-71.3	i	0.7	2.9	8.0
O=c1c2ccccc2nc(-c2ccccc2)n1-c1ccccc1	-6.6	63.3	-9.3	-7.6	i	0.1	-1.4	-1.9
CCSc1nnc([C@@H](N)Cc2c[nH]c3ccccc23)o1	-0.3	-11.2	-3.1	-28.4	i	7.5	5.1	0.7

More compounds.
SMILES	PABP polyA inh	CSC inhib	Yeast UUG start	HIV Env fusion	Rce1 inh	MT1-MMP act inh	MT1-MMP act inh RFP	eIF4H inh	others
O/N=C1\CCC2CN(C3CCCCC3)CC2C1 (stereo not given)	4.9	5.1	-7.4	x	i	3.1	1.8	5.3
CN1C(=O)C(=Cc2cc([N+](=O)[O-])ccc2N2CCCCC2)C(=O)N(C)C1=O	44.1	-13.5	x	22.4	i	1.8	0.6	2.4
CN1CCc2nc(SCC(=O)OC(C)(C)C)c(C#N)cc2C1	25.5	-7.9	8.4	-140.6	i	-28.1	-3.8	17.1
CC(C)N1OC2CC1c1nc3ccccc3n1C2 (stereo not given)	20.0	-5.3	-16.5	-16.2	i	2.0	5.5	0.1
O=C1NCN(c2ccccc2)C12CCN(C(c1ccccc1)c1nnnn1-c1ccc3c(c1)OCCO3)CC2 (stereo not given)	x	x	10.1	-281.7	x	-2.8	-4.0	x
C[C@]12CC[C@@H](O)C[C@@H]1CC[C@@H]1[C@@H]2CC[C@]2(C)C(=O)CC[C@@H]12	0.6	-3.1	-11.9	11.2	i	3.8	-4.3	-0.3
COC(=O)C1=C(c2ccc(F)cc2F)C[C@@H]2CC[C@H]1N2C(=O)NCc1ccc(F)cc1	x	-3.7	-11.8	-13.0	x	1.2	-2.1	x
O=C1CN=C(c2ccccc2)c2ccccc2N1	1.5	x	-5.1	7.8	i	0.0	4.2	-0.8
O=c1[nH]c(=O)n(-c2ccccc2)c(O)c1/C=C/C=Nc1ccccc1	2.1	x	x	-8.1	i	-93.6	1.8	u
CN(C)C1=C(C#N)C(c2ccccc2)=NP(N(C)C)(N(C)C)=N1	-5.5	1.0	-20.2	-63.1	i	0.8	1.4	2.3
COc1cc2c(c(OC)c1OC)-c1ccc(C(=O)O)cc1[C@@H](NC(C)=O)CC2	x	-5.0	2.9	5.9	i	-2.2	-1.4	x
CC(=O)Nc1ccc(OC(=O)N2CCCCC2)cc1	9.3	-1.0	-9.2	-29.0	i	-4.7	-3.5	-3.6
CN(C)c1ccc(/C=C2/C(=N\O)C3CCN2CC3)cc1	3.3	11.8	2.0	-45.2	i	6.9	10.9	6.4
CCCN(CCC)C1CCc2ccc(O)cc2C1 (stereo not given)	x	-14.5	8.8	-12.4	x	2.4	2.4	x
COc1ccccc1NC1=NCCS1	12.0	0.1	-4.7	9.3	i	5.1	5.2	4.6
Cc1cc(NC(=O)CCC(=O)N2CCC3(CC2)OCCO3)no1	-1.5	-6.1	x	-16.7	i	-2.9	0.4	5.0

Some of the compounds tested; rates above refer to the full screens.
